Rango complex inh: prevents formation of the Rango-importin beta complex; Q14974; Rango CFP/YFP FRET sensor + importin beta, 45 min; Potency, µM (series often up to 92.2 µM), without a hit: at the top dose inhibition of complex formation; actives 0.031% (n = 340,000); active = rising FRET ratio curve, often small or poorly fitted; inconclusive = mostly compound fluorescence or quenching in the first reads; inactive = flat curves in all reads;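 also: potency is read from the fitted curve at half-maximal effect; 0% = DMSO wells and 100% = buffer wells lacking importin beta; nearly all actives have a fitted effect of over 15% in size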
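FRET biosensor Rango (snurportin 1 IBB between N-terminal EYFP and C-terminal Cerulean), 50 nM in PBS/1 mM DTT/0.02% Tween-20/0.1% BSA, preincubated 5 min RT with compound; 0.125 microM importin beta added, 45 min RT, CFP/YFP FRET ratio read.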
miR-21 reporter: raises the signal of a miR-21 reporter | HeLa miR-21 FLuc reporter, luciferase, 48 h | Potency, µM (highest dose often 38.3 µM), inactives show at the top dose reporter change, positive = more light | 340,000 tested, under 10 active | AID 2288; active = well fitted rising curve with a large enough effect; inconclusive = small, poorly fitted or top-dose-only effect; inactive = no such curve, though single readings can be large or run the other way;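 also: % of control where 0% means no effect; miR-21 action dims this reporter so a rising signal means less miR-21 action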
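HeLa cells stably expressing CMV-driven firefly luciferase with a downstream miR-21 binding sequence, endogenously expressing miR-21, were treated with titrations (up to about 40uM final) for 48 hours at 37 degree Celsius. Luciferase luminescence was read after lysis.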
GLA inh pH 4.5: alpha-galactosidase A (human) inhibition, pH 4.5; 230,000 tested, under 10 active; purified enzyme, 4-MU-alpha-Gal fluorescence, pH 4.5; activity change, negative = inhibition, % at 105 µM; inconclusive = small, poorly fitted or top-dose-only inhibition, or a rising curve; inactive = flat fitted curve, though single readings scatter; no compound was filed as active;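 also: 0% = full activity with enzyme and -100% = basal without enzyme; dose as in the result columns while the protocol names 77 µM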
Target sequence (P06280 whole entry, looked up): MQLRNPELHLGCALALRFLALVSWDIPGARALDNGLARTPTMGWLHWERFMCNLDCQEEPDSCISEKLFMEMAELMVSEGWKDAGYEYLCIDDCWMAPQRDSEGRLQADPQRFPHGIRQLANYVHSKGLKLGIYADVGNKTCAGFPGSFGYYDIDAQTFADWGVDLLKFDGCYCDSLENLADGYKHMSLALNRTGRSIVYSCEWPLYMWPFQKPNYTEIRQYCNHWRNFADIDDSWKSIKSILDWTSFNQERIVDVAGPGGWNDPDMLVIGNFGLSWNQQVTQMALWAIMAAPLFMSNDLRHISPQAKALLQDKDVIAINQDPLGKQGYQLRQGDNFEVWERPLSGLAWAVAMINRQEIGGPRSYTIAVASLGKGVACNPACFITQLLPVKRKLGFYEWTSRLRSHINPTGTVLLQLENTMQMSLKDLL
Rango dissoc inh: inhibition of RanGTP-driven Rango-importin beta dissociation; O95149+P62826; Biochemical FRET Rango-importin beta, RanGTP-induced dissociation; AID 540253; Potency, µM (top dose mostly 46.1 µM), for the others: at the highest dose activity change, negative = inhibition; actives 0.071% (n = 340,000); active means falling FRET ratio curve, often poorly fitted, with flat reads before Ran was added; inconclusive means other falling curves, or compound fluorescence or quenching; inactive means flat or rising ratio curve;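 also: potency is read from the fitted curve at half-maximal effect; % of control where 0% means no effect; nearly all actives have a fitted effect of over 45% in size; -100% = wells without RanGTP and RCC1; the record marks most hits as doubtful in a second field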
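Rango/importin beta premix (0.1/0.25 uM final), PBS + 1 mM DTT + 0.02% Tween-20 + 0.1% BSA; cpd 5 min RT; FRET pre-read; + RanGTP-RCC1 (0.6 uM Ran, 2 mM GTP, 0.2 uM RCC1); 45 min RT; FRET post-read, ex 430, em 486/530 nm.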
The depositor's hits bear a star; ? = inconclusive; nt = no result given; & = joins results of further samples. Not all compounds are listed; count on the stated rates, not on these rows.

nr	Rango complex inh	miR-21 reporter	GLA inh pH 4.5	Rango dissoc inh	compound
1	?	nt	nt	-10.7%	Cc1ccc(NC(=O)c2ccc3c(c2)OCO3)cc1S(=O)(=O)N1CCOCC1
2	2.5%	-1.1%	5.8	1.7%	Cc1c(NC(=O)c2cnn3c2NC(c2ccccc2)CC3C(F)(F)F)c(=O)n(-c2ccccc2)n1C (configuration not stated)
3	?	-2.3%	nt	1.8%	CC(C)Cc1nnc(NC(=O)CCC(=O)Nc2ccc(Cl)cc2)s1
4	3.3%	23.3%	-7.3	0.9%	CC(=O)N1CCN(c2ccc(NC(=O)c3ccc(C(C)(C)C)cc3)cc2)CC1
5	?	3.4%	11.9&-28.4	-2.8%	CC1(OC(=O)C2CCCC2)C(=O)C=C2C=C(c3ccsc3)N(CCc3ccccn3)C=C2C1=O (configuration not stated)
6	-0.1%	4.7%	10.1	4.0%	Cc1nnsc1NC(=O)OCc1ccc(C(F)(F)F)cc1
7	-3.1%	14.1%	-19.5	1.6%	CC1=Nc2cc(C(=O)NCCCOC(C)C)ccc2Sc2ccc(C)cc21
8	-1.0%	nt	nt	1.1%	CCc1ccc(NC(=O)CSc2n[nH]c(=O)n2C2CC2)cc1
9	-0.5%	14.2%	-5.2	?	Cc1ccc(S(=O)(=O)NC(C)C(c2cccs2)N2CCN(c3ccccc3)CC2)cc1 (configuration not stated)
10	2.1%	0.6%	-14.9	-3.4%	O=C(CCCCCN1C(=O)c2ccccc2C1=O)NCc1ccccn1
11	0.0%	-7.4%	nt	3.3%	C=CCn1c(=O)c2c(nc3n2CC(C)CN3CCc2ccccc2)n(C)c1=O (configuration not stated)
12	0.3%	-8.7%	0.8	-16.7%	Cc1cccc(NC(=O)CC2C(=O)NCCN2C(=S)Nc2ccccc2)c1 (configuration not stated)
13	-2.3%	-7.4%	nt	-11.2%	Cc1nn(-c2ccccc2)nc1C(=O)Nc1ccc2c(c1)OCCO2
14	0.2%	0.0%	2.2	-5.2%	Cc1ccc(C=NCc2ccncc2)c(O)c1
15	0.2%	-40.0%	0.4	-20.0%	CC(C)(C)Sc1ccc([N+](=O)[O-])cc1C(=O)Nc1ccncc1
16	0.7%	-20.2%	-2.5	0.7%	COc1ccc(CC(=O)NNc2ncnc3c2cnn3-c2ccc(C)cc2)cc1OC
17	0.5%	1.5%	2.6	0.7%	Cc1ccc(S(=O)(=O)NNC(=O)CCC(=O)Nc2ccccc2)cc1
18	3.2%	-2.0%	-1.1	35.0%	Cc1onc(-c2ccc(Cl)cc2)c1-c1ccnn1S(=O)(=O)c1cccc(C(F)(F)F)c1
19	0.0%	-3.3%	nt	0.6%	CCn1cc(/C=C(\NC(=O)c2ccccc2F)C(=O)N2CCOCC2)c2ccccc21
20	-0.4%	-15.3%	-9.4	27.8%	O=C(/C=C/c1ccccc1)NCCSCc1ccccc1Cl
21	-6.1%	-55.1%	-5.6	2.5%	O=C(Cn1nnc(-c2ccc(OCc3ccccc3F)cc2)n1)N1CCOCC1
22	-1.7%	-0.4%	-7.2	7.4%	O=C(c1ccccc1F)N1CCCC(C(=O)N2CCc3ccccc3C2)C1 (configuration not stated)
23	-0.3%	nt	nt	9.9%	COc1ccc(CNC(=O)COC(=O)c2nc3nc(C)cc(C)n3n2)cc1
24	-2.4%	-2.2%	nt	-6.0%	COc1cccc(Oc2cc(NN3CCCCC3)c([N+](=O)[O-])cc2[N+](=O)[O-])c1OC
25	?	1.9%	nt	3.8%	O=C(O)C1C2C=CC(C2)C1C(=O)Nc1cccc(C(F)(F)F)c1 (configuration not stated)
26	3.4%	10.8%	-0.9	-4.6%	CN(C(=O)Cn1cccc1C1=NC(c2ccccc2)CO1)c1ccccc1 (configuration not stated)
27	-2.7%	-11.1%	nt	-2.5%	CN(Cc1ccco1)C(=O)C1CCN(c2nnc(-n3cccc3)s2)CC1
28	3.1%	13.6%	9.5	-3.2%	O=C(/C=C/c1ccccc1)Nc1ccc2c(c1)OCCO2
29	0.5%	-16.8%	nt	12.3%	Cc1nc(C)c(-c2csc(Nc3ccc(N)cc3)n2)s1
30	-1.5%	?	nt	-5.8%	O=C1c2ccccc2C(=O)c2[nH]c(=O)[nH]c21
31	-1.5%	2.4%	1.3	-0.8%	Cn1c(N)c(C(=O)COC(=O)CCOc2ccc(C(C)(C)C)cc2)c(=O)n(C)c1=O
32	-1.1%	-1.0%&1.3%	nt	11.5%	Cc1nc2sccn2c(=O)c1S(=O)(=O)NCc1ccccc1
33	0.1%	nt	nt	11.7%	Cc1nn(C)c(C)c1NC(=O)COc1ccc(F)cc1Br
34	-3.8%	nt	nt	6.1%	COc1ccc(Cn2nnc3ccccc32)cc1
35	-0.2%	nt	nt	0.6%	O=C(O)c1cc(NS(=O)(=O)c2cccs2)cc(NS(=O)(=O)c2cccs2)c1
36	3.3%	0.2%	4.3	3.6%	NC(=O)C1CCN(C2OC(=O)c3ccccc32)CC1 (configuration not stated)
37	0.6%	nt	nt	0.2%	Cc1ccc(S(=O)(=O)N2CCC(C(=O)NCc3ccccc3CN3CCCC3)CC2)cc1C
38	1.0%	-39.2%	1.0	11.5%	COCc1nnc(NC(=O)c2sc3ccccc3c2Cl)s1
39	3.9%	-10.0%	2.4	9.5%	CCc1ccc(N(C(=O)c2csnn2)C(C(=O)NC(C)(C)C)c2ccncc2)cc1 (configuration not stated)
40	-1.8%	-4.3%	nt	-4.3%	CCC1CCCCN1CCNC(=O)C1CCCN(S(=O)(=O)c2cccc3nsnc23)C1 (configuration not stated)
41	-0.5%	-14.1%	nt	0.9%	Cc1ccc(NC(=O)CCCn2c(=O)[nH]c3ccsc3c2=O)cc1
42	-0.5%	-21.4%	nt	17.3%	O=c1ccc(-c2ccc(S(=O)(=O)Nc3cccc(Br)c3)o2)n[nH]1
43	-3.1%	-25.2%	-3.5	-10.7%	Cc1ccc(C)c(C(=O)COc2ncnc3ccccc23)c1
44	?	-0.7%	nt	-1.2%	CC(C)Cc1nnc(NC(=O)CCC(=O)NC2CCCCC2)s1
45	-0.1%	2.2%	0.3	-8.5%	Cc1csc(/C(=N\O)c2csc(C)n2)n1
46	0.5%	0.3%	nt	-12.2%	COc1ccc(/C(O)=C2/C(=O)C(=O)N(CCCN3CCOCC3)C2c2ccc(OC)cc2)cc1 (configuration not stated)
47	-2.3%	-2.9%	-6.2	-12.0%	CN(c1ccccc1C(=O)Nc1cccc(C(F)(F)F)c1)S(C)(=O)=O
48	0.9%	-6.0%	2.1	13.8%	CN(CC(=O)OCC(=O)c1c(N)n(C)c(=O)n(C)c1=O)S(=O)(=O)c1ccc(Cl)cc1
49	0.1%	-6.3%	4.6	-10.8%	CCC(c1nnnn1C1CCCC1)N1CCN(Cc2ccccc2)CC1 (configuration not stated)
50	-8.1%	-0.8%	6.2	-8.1%	CCOc1ccccc1NC(=O)NC1(C(=O)N2CCN3CCCC3C2)CCCCC1 (configuration not stated)

(continued)
nr	Rango complex inh	miR-21 reporter	GLA inh pH 4.5	Rango dissoc inh	compound
51	-2.2%	-88.0%	-16.7	-16.2%	[O-]/[N+](=C\C=C\c1ccccc1)c1ccccc1
52	1.0%	-2.0%	6.3	12.6%	COc1ccccc1N1CCN(C(=O)C2C3C=CC4(CN(Cc5ccccc5Cl)C(=O)C24)O3)CC1 (configuration not stated)
53	5.6%	0.0%	nt	13.5%	COc1ccc(N2CC(C(=O)Nc3c4c(nn3-c3ccccc3)CS(=O)(=O)C4)CC2=O)cc1 (configuration not stated)
54	-6.4%	-61.3%	0.8	9.3%	CC(=O)c1ccc(NS(=O)(=O)c2cccc(C)c2)cc1
55	4.7%	-37.5%	-2.7	6.2%	COc1ccc2c(C)nc(Nc3nc(C)c(C)c(=O)[nH]3)nc2c1
56	-0.4%	nt	nt	-18.5%	CC1CCN(c2ccc(-c3cccc(NC(=O)c4ccco4)c3)nn2)CC1
57	-0.4%	-3.5%	nt	1.4%	C/C(CC(=O)NCc1ccco1)=N\NC(=O)c1ccc([N+](=O)[O-])cc1Cl
58	-8.7%	-6.9%	-9.8	-1.3%	COCCN(CCOC)Cc1c(C)[nH]c2ccccc2c1=O
59	-1.8%	-0.9%	nt	18.5%	CCC(C)NC(=O)c1ccc(CN2CCc3ccccc3C2)cc1 (configuration not stated)
60	1.7%	0.5%	nt	0.7%	Cc1cc(OCC(=O)N2CCC[C@@H]2C(=O)O)c2c(C)c(C)c(=O)oc2c1
61	-4.8%	0.9%	-5.4	13.3%	CCOC(=O)C1=C(C)NC(=O)NC1c1ccc(Cl)cc1Cl (configuration not stated)
62	-2.2%	-7.8%	-7.6	-20.9%	NS(=O)(=O)c1ccc(CNS(=O)(=O)c2ccc(Cl)nc2)cc1
63	-0.2%	-1.3%	6.3	-10.6%	COc1ccc(OCC(=O)Nc2ccc(N3CCC(C)CC3)cc2)cc1
64	?	-18.1%	6.6	?	COc1ccc2c(c1)NC(c1ccc(N(C)C)cc1)c1cccn1-2 (configuration not stated)
65	-1.3%	-2.9%	2.4	-13.0%	CCOc1ccccc1C1C(C#N)=C(N)Oc2cc(C)n(C)c(=O)c21 (configuration not stated)
66	?	-8.2%	-6.3	-16.5%	CSc1ncc(CN2CCc3c([nH]c4ccccc34)C2c2cccc(C)n2)cn1 (configuration not stated)
67	0.0%	-9.5%	nt	6.2%	COc1ccc(Br)cc1CN(C)CC(O)COc1ccc(Br)cc1 (configuration not stated)
68	3.4%	22.8%	7.9	?	Cc1cc(C)n(-c2nc(NCC(C)O)c3c4c(sc3n2)CCCC4)n1 (configuration not stated)
69	3.9%	26.6%	3.6	18.1%	COc1ccc(CNC(=O)COC(=O)CCCOc2ccc(Cl)cc2Cl)cc1
70	-4.4%	-13.6%	-14.2	23.6%	Cc1ccc(C(=O)N/N=C/c2cccc(OC(=O)/C=C/c3ccco3)c2)cn1
71	0.2%	-2.2%	nt	5.4%	N#C/C(=C\c1cccnc1)C(=O)Nc1ccc(Cl)cc1
72	0.7%	24.0%	-6.7	5.1%	C=CCn1c(O)c(N=NC(=S)Nc2cccc(C)c2)c2ccccc21
73	0.2%	21.4%	nt	13.0%	Cc1cc(OCCCCOc2ccc(S(N)(=O)=O)c(C)c2)ccc1S(N)(=O)=O
74	-4.2%	nt	nt	-14.6%	COc1ccc2c(c1)CCCC21NC(=O)N(CC(=O)c2cc(F)ccc2F)C1=O (configuration not stated)
75	-3.8%	7.3%	1.9	5.5%	COc1cc(/C=C/C(=O)OCC(=O)NC(=O)NC(C)(C)C)cc(OC)c1OC
76	-4.4%	nt	nt	-1.7%	CC1Cc2ccccc2N1C(=O)CN(C)CC(=O)Nc1cccc(F)c1 (configuration not stated)
77	-1.4%	nt	nt	-5.1%	Cc1ccc(NC(=O)COc2ccccc2C#N)cc1S(=O)(=O)N1CCCCCC1
78	-1.4%	-0.5%	nt	21.2%	Cc1ccc(S(=O)(=O)NNC(=O)c2ccc(F)cc2)cc1
79	?	nt	nt	?	NS(=O)(=O)c1cccc(NC(=O)COC(=O)c2ccccc2SCC(=O)N2CCCC2)c1
80	-1.1%	nt	nt	3.3%	COc1ccccc1NS(=O)(=O)c1cccc(C(=O)NNC(=O)C(C)NC(=O)c2ccco2)c1 (configuration not stated)
81	-3.0%	-0.7%	-5.0	-4.5%	CCn1cc(CN2CCN(Cc3ccsc3)C(CCO)C2)cn1 (configuration not stated)
82	-1.5%	4.7%	-5.7	9.3%	Cc1nc(-c2nc(-c3c(C(=O)NNC(=O)Nc4cccc(Cl)c4)noc3C)cs2)cs1

Compound activity deposited in PubChem by National Center for Advancing Translational Sciences (NCATS).
